Source: PubChem BioAssay (National Center for Advancing Translational Sciences (NCATS))
Methyltransferases – Primary Screen for Target Class Profiling of Small Molecule Inhibitors of Methyltransferases | purified enzyme, MTase-Glo SAH luminescence; hits give low values | AID 1745853, 2022 | calls only at 40 µM | 25,000 compounds, 3.9% hits; active = -50% or lower on at least one of six enzymes; inconclusive = the cases between; inactive = as a rule above -30% on all six;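 further: enzymes were COMT GAMT GNMT HNMT NNMT and PNMT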
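Each enzyme was assayed with SAM and its substrate. SAH formation detected by MTase-Glo luminescence; single-point 40 uM screen[…].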
Calls only; i = inactive; ? = inconclusive; + = active, no number. On the % scale 0 is the no-effect control and ±100 the full control effect. Not all compounds are listed (hit frequency here may not be typical).

The first 5 records, ahead of the listing:
SMILES	Methyltransferases
OC1CCOC2(CCN(Cc3ccc4cc[nH]c4c3)CC2)C1 (stereo unspecified)	i
CC1CCC2(NC1)OC1C(O)C3C4CCC5CC(O[C@@H]6O[C@H](CO)[C@@H](O)[C@H](O)[C@H]6O[C@@H]6O[C@@H](C)[C@H](O)[C@@H](O)[C@H]6O)CCC5(C)C4CCC3(C)C1C2C (stereo partly specified)	i
COCc1noc([C@@H]2CC(F)(F)CN2C(=O)c2cnc(C)cn2)n1	i
CCn1c(=O)n(CC(=O)NCc2ccc3c(c2)OCO3)c(=O)c2cnc(-c3ccc(Cl)cc3)nc21	i
CNC(C)C(=O)NC(C(=O)N1CCCC1C(=O)Nc1snnc1-c1ccccc1)C1CCCCC1 (stereo unspecified)	i

The whole of this part (from the top)
SMILES	Methyltransferases
OC1CCOC2(CCN(Cc3ccc4cc[nH]c4c3)CC2)C1 (stereo unspecified)	i
CC1CCC2(NC1)OC1C(O)C3C4CCC5CC(O[C@@H]6O[C@H](CO)[C@@H](O)[C@H](O)[C@H]6O[C@@H]6O[C@@H](C)[C@H](O)[C@@H](O)[C@H]6O)CCC5(C)C4CCC3(C)C1C2C (stereo partly specified)	i
COCc1noc([C@@H]2CC(F)(F)CN2C(=O)c2cnc(C)cn2)n1	i
CCn1c(=O)n(CC(=O)NCc2ccc3c(c2)OCO3)c(=O)c2cnc(-c3ccc(Cl)cc3)nc21	i
CNC(C)C(=O)NC(C(=O)N1CCCC1C(=O)Nc1snnc1-c1ccccc1)C1CCCCC1 (stereo unspecified)	i
COCCN1C[C@@H]2[C@H](c3ccccc31)[C@@H](CO)[C@@H](c1ccccc1)N2C(=O)COC(C)=O	i
COc1ccc(OC)c2c1cc1n2CC(C)(C(=O)NC2CCCCC2)N(Cc2ccccc2C)C1=O (stereo unspecified)	i
Cc1ccc(CNC(=O)c2cc3n(n2)CC(C)(C(=O)NC2CCCCC2)N(C)C3=O)cc1 (stereo unspecified)	i
O=C(NCc1ccc(N2CCOCC2)cc1)c1cc[nH]c1C1CCCNC1 (stereo unspecified)	?
CCCN1C(=O)c2cc(C(=O)NCc3cc(OC)ccc3OC)nn2CC1(C)C(=O)NC1CCCC1 (stereo unspecified)	i
CN(C)C(=O)N1CCN(c2ccc(Cl)nn2)C(=O)C1	i
CCOC(=O)c1ccc(Nc2ncnc3ccc(Br)cc23)cc1	i
Cn1c(=O)c2ccc(C(=O)NC3CCCC3)cc2n2c(=O)n(Cc3ccccc3Cl)nc12	i
OCCc1ccc(O[C@@H]2O[C@H](CO)[C@@H](O)[C@H](O)[C@H]2O)cc1	i
CCC(C)NC(=O)CN1CN(c2ccccc2)C2(CCN(C(=O)Nc3ccccc3C)CC2)C1=O (stereo unspecified)	i
CC1(C)[C@H]2CC[C@@H](CNC(=O)c3ccc4ccccc4n3)[C@@H]1C2	i
COC(=O)c1cc2n(n1)CC(C)(C(=O)NC1CCCCCC1)N(c1ccc(C)c(Cl)c1)C2=O (stereo unspecified)	i
Cn1nc(C(=O)N2CCC3(CC2)CC(Cc2nc(C4CC4)no2)CCO3)c2ccccc21 (stereo unspecified)	i
C=CCN(CC=C)CC(O)Cn1c2c(c3cc(C)ccc31)CCCC2 (stereo unspecified)	i
CCOc1ccc(CCNC(=O)c2cc3sc(Cl)cc3n2C)cc1OCC	i
CC1(C(=O)NC2CCCCC2)Cn2c(cc3occc32)C(=O)N1C1CCN(Cc2ccccc2)CC1 (stereo unspecified)	i
O=C1CCN(C(=O)CCc2ccccc2)CCCC(CO)CCN1 (stereo unspecified)	i
CC(C)c1ccc(N2C(=O)c3cc(-c4ccccc4)nn3CC2(C)C(=O)NCc2ccccc2)cc1 (stereo unspecified)	i
CCn1c(=O)n(CC)c2cc(S(=O)(=O)Nc3ccc(Cl)cc3)ccc21	i
O=C(c1ccsc1)N1CCC2(CCCN(CC3CCC3)C2=O)C1 (stereo unspecified)	i
CCC1=CC2CN(C1)Cc1c([nH]c3ccccc13)[C@@](C(=O)OC)(c1cc3c(cc1OC)N(C)[C@H]1[C@@](O)(C(=O)OC)[C@H](OC(C)=O)[C@]4(CC)C=CCN5CC[C@]31[C@@H]54)C2 (stereo partly specified)	?
Cc1ccccc1C(=O)N1C(C(=O)NCc2ccccc2)COC12CCN(C(=O)c1ccco1)CC2 (stereo unspecified)	i
CC(C)C1=NOC2(CCCN(C(=O)c3ccccn3)C2)C1 (stereo unspecified)	i
CC1CCC(NC(=O)C2(C)Cn3c(ccc3-c3ccccc3)C(=O)N2Cc2ccc(Cl)cc2)CC1 (stereo unspecified)	i
CC(C)OCCCn1c(=O)c2ccccc2n2c(=O)n(CC(=O)Nc3ccc(F)cc3)nc12	i
CC(=O)Oc1cc2c(s1)CCN([C@H](C(=O)C1CC1)c1ccccc1F)C2	?
Cc1cccc(Cn2nc3n(Cc4ccc(F)cc4)c(=O)c4ccccc4n3c2=O)c1	i
C=C(C(=O)O)C1CC2=C(C)C(=O)CC2C(C)CC1O (stereo unspecified)	i
CSCC(=O)N[C@H]1CCN2C(=O)c3ccc(Cl)cc3NC(=O)[C@@H]2C1	i
COc1ccc2cc3n(c2c1)CC(C)(C(=O)NC1CCCC1)N(Cc1ccc(Cl)cc1)C3=O (stereo unspecified)	i
O=C(Nc1nc2cc(C(F)(F)F)cc(NC3CC3)n2n1)c1cccnc1	i
CNC(=O)Cn1nc(C2CCN(C(=O)c3ccccc3F)CC2)c2c1CCOC2	i
COc1cccc(Nc2ncc3c(n2)C(C)(C(=O)N2CCN(c4ccccn4)CC2)CC3)c1 (stereo unspecified)	i
Cn1cc(CN2CCCC(C(=O)N3CCOCC3)C2)c(-c2ccc(C3CCCCC3)cc2)n1 (stereo unspecified)	i
O=C(CCc1nnc2n(Cc3ccc(F)cc3)c(=O)c3ccccc3n12)N1CCC(N2CCCCC2)CC1	+
COc1ccc(C(=O)N2CCCCC23Cc2ccccc2NC3=O)cc1 (stereo unspecified)	i
Cc1ccn(CCC(=O)NCc2cccnc2Oc2ccc(F)c(F)c2)n1	i
Cc1cc(NC(=O)C2CCN(c3cc(C(F)(F)F)ncn3)CC2)ccc1Br	i
CN(Cc1cccnc1)Cc1ccccc1C(F)(F)F	i
COc1cccc(N2C(=O)c3cc4sccc4n3CC2(C)C(=O)NC2CCCCCC2)c1 (stereo unspecified)	i
O=C1c2cc3occc3n2CC(C(=O)NC2CCCCCC2)(c2ccccc2)N1Cc1ccc(F)cc1 (stereo unspecified)	i
O=C(NCc1cccc(C(F)(F)F)c1)c1nc2sccn2c1-c1ccccc1	i
CC(C)n1c(=O)c2ccc(C(=O)NC3CCCC3)cc2n2c(=O)n(CC(=O)c3ccc(Cl)cc3)nc12	i
CC(C)OCCCn1c(=O)c2ccccc2n2c(=O)n(Cc3ccccc3Cl)nc12	i
O=C(c1ccccc1)N1CCC2(CC1)C(=O)NCN2Cc1ccc(Cl)cc1	i

Ordered by number of heavy atoms (lowest first): 3 of the compounds above.
SMILES	Methyltransferases
CN(Cc1cccnc1)Cc1ccccc1C(F)(F)F	i
Cc1ccn(CCC(=O)NCc2cccnc2Oc2ccc(F)c(F)c2)n1	i
O=C(NCc1cccc(C(F)(F)F)c1)c1nc2sccn2c1-c1ccccc1	i

More entries follow.
SMILES	Methyltransferases
CC(=O)Nc1ccc(CN2CCC3(C2)C(=O)N(C)c2ccccc23)cc1 (stereo unspecified)	i
COC(=O)c1ccc([C@H]2Nc3ccc(S(=O)(=O)Nc4ccc(C)c(C)c4)cc3[C@H]3C=CC[C@H]32)cc1	i
CCS(=O)c1nc(-c2cccc(OCc3ccccc3)c2)cc(C(F)(F)F)n1 (stereo unspecified)	i
COc1ccccc1CNC(=O)CN(C)S(=O)(=O)c1ccc2[nH]c3c(c2c1)CCCC3	i
CN1C(=O)c2cc(C(=O)NCCN3CCOCC3)nn2CC1(C)C(=O)NC1CCCCCC1 (stereo unspecified)	i
CCN1C(=O)c2cc(C(=O)Nc3ccc(C)c(C)c3)nn2CC1(C)C(=O)NC1CCCC1 (stereo unspecified)	i
CC1(C(=O)NC2CCCCC2)Cn2c(ccc2-c2ccccc2)C(=O)N1CCCc1ccccc1 (stereo unspecified)	i
COc1ccccc1C(=O)N1CCC2(C1)C(=NC1CCCCC1)NC(=O)N2c1cc(F)cc(F)c1 (stereo unspecified)	i
COCCCNC(=O)C1(C)Cn2nc(-c3ccccc3)cc2C(=O)N1Cc1cccc(OC)c1 (stereo unspecified)	i
C/C=C/c1ccc2c(c1)[C@@H](C)[C@H](c1ccc(O)cc1)O2	+
C=C[C@H]1[C@H](O[C@@H]2O[C@H](CO)[C@@H](O)[C@H](O)[C@H]2O)OC=C(C(=O)OC)[C@H]1C[C@@H]1c2cc(O)c(O)cc2CCN1C(C)=O	i
Cc1ccccc1CSc1nnc2n(Cc3ccccc3)c(=O)c3ccccc3n12	i
Cn1cnc(S(=O)(=O)N2C[C@@H](Oc3ccccc3)C[C@H]2C(=O)N2CCOCC2)c1	i
COc1ccc(C2(C(=O)N3CCCCCC3c3nc(-c4cccnc4)no3)CC2)cc1 (stereo unspecified)	i
Cc1cccc(N2CCN(C(=O)CCc3nnc4n(CCc5ccccc5)c(=O)c5ccccc5n34)CC2)c1C	i
CCOc1ccccc1-c1noc(-c2nc(C)no2)n1	i
CC1(C)CCC[C@@]2(C)[C@H]1[C@H](O)C=C(CO)[C@]2(O)CO	i
CCN(Cc1ccccc1)C(=O)CCn1ccc2cc(S(=O)(=O)N3CCCCC3)ccc21	i
COC(=O)c1ccc([C@H]2Nc3ccc(S(=O)(=O)Nc4cccc(C)c4)cc3[C@H]3C=CC[C@H]32)cc1	i
Cc1noc(C)c1S(=O)(=O)N(C)C1CCOc2ccccc21 (stereo unspecified)	?
Cc1c(C(=O)O)ccc2c1N[C@@H](c1cccc(C(F)(F)F)c1)[C@H]1CC=C[C@@H]21	?
CC(C)CNc1ccc2c(n1)C(C)(C(=O)NCc1cccnc1)CN(Cc1ccccc1)C2 (stereo unspecified)	i
Cc1cccc(C(=O)N2CCN(c3cc(C(F)(F)F)nc(C)n3)CC2)c1	i
Cc1ccc(Cn2c(=O)c3ccccc3n3c(=O)n(CC(=O)c4ccc(C)cc4)nc23)cc1	i
COc1cccc(CNC(=O)CSc2nnc3n(CCc4ccccc4)c(=O)c4ccccc4n23)c1	i
Cc1ccc(S(=O)(=O)NC[C@H]2OC[C@@H](N(C)C)[C@@H]2O)cc1	i
CC(C)(C#N)c1ccc(N2C(=O)OCc3cnc4ccc(-c5cnc6ccccc6c5)cc4c32)cc1	i
O=C1CC(=O)Nc2cc(S(=O)(=O)Nc3cccc(Br)c3)ccc2N1	i
CCCCNC(=O)CCn1ccc2cc(S(=O)(=O)N3CCCCC3)ccc21	i
CCCn1c(=O)c2cc(F)ccc2n2c(SCC(=O)Nc3ccc(OC)cc3)nnc12	i

Of the compounds above, these have bromine.
SMILES	Methyltransferases
CCOC(=O)c1ccc(Nc2ncnc3ccc(Br)cc23)cc1	i
Cc1cc(NC(=O)C2CCN(c3cc(C(F)(F)F)ncn3)CC2)ccc1Br	i
O=C1CC(=O)Nc2cc(S(=O)(=O)Nc3cccc(Br)c3)ccc2N1	i

Continued.
SMILES	Methyltransferases
Cc1ccc(NC(=O)N2CCn3cccc3C2C)cc1C (stereo unspecified)	i
Cc1ccc(CN2C(=O)c3cc(-c4cccs4)nn3CC2(C)C(=O)NC2CCCCC2)cc1 (stereo unspecified)	i
Cc1ccc(CNC(=O)CCc2nnc3n(Cc4ccccc4Cl)c(=O)c4ccccc4n23)cc1	i
C[C@@H]1O[C@@H](O[C@H]2[C@H](O)[C@@H](O[C@@H]3O[C@H](CO)[C@@H](O)[C@H](O[C@@H]4O[C@H](CO)[C@@H](O)[C@H](O)[C@H]4O)[C@H]3O)[C@H](O[C@H]3CC[C@@]4(C)C(=CC[C@@H]5C4CC[C@@]4(C)C5C[C@@H]5OC6(CC[C@@](C)(CO[C@@H]7O[C@H](CO)[C@@H](O)[C@H](O)[C@H]7O)O6)[C@@H](C)[C@@H]54)C3)O[C@@H]2CO)[C@H](O)[C@H](O)[C@H]1OC1OC(CO)C(O)C(O)C1O (stereo partly specified)	i
CCCC1c2ccc(C)n2CCN1C(=O)Nc1cccc(OC)c1 (stereo unspecified)	i
CC(C)CC(N)c1nnc2n1CCNCC2 (stereo unspecified)	i
CCCN1C(=O)c2cc(C(=O)NCCOC)nn2CC1(C)C(=O)NC1CCCC1 (stereo unspecified)	i
CCOC(=O)c1cc2n(n1)CC(C)(C(=O)NCc1ccccc1)N(c1cc(C)cc(C)c1)C2=O (stereo unspecified)	i
C=C1[C@H]2CCC3[C@]4(C)CCC[C@@](C)(C(=O)O)C4CC[C@]3(C2)[C@H]1OC(C)=O (stereo partly specified)	i
CCC1(N2CCN(S(=O)(=O)c3cccs3)CC2)CCN(S(C)(=O)=O)C1 (stereo unspecified)	i
Cc1ccccc1CN1CCn2c1nc1c(c2=O)CN(Cc2ccccc2)CC1	i
CC(C)=CCCC1(C)C=Cc2c(c(C)cc3c2[nH]c2ccccc23)O1 (stereo unspecified)	i
C=CCn1c(=O)c2ccc(C(=O)NC(C)C)cc2n2c(=O)n(CC(=O)Nc3ccccc3CC)nc12	i
Cc1cccc(NC(=O)Cn2nc3n(C(C)C)c(=O)c4ccc(C(=O)NC(C)C)cc4n3c2=O)c1	i
CC(C(=O)NCc1cccc(F)c1)n1ccc2cc(S(=O)(=O)N3CCCC3)ccc21 (stereo unspecified)	i
Cc1noc(-c2ccc(N3CCN(Cc4nccn4C)CC3)nc2)n1	i
COc1ccc(CCn2nnnc2C2(c3ccc(C)cc3)CC2)cc1	i
Cc1ccc(C(=O)Cn2nc3n(CCC(C)C)c(=O)c4ccc(C(=O)NC(C)C)cc4n3c2=O)cc1	i
C/C=C(\C)C(=O)O[C@H]1[C@@H](O[C@]2(COC(=O)CC(C)C)O[C@H](COC(=O)C(C)CC)[C@@H](OC(C)=O)[C@@H]2O)O[C@H](COC(C)=O)[C@@H](O)[C@@H]1O (stereo partly specified)	i
O=C(NCC1CC1)C1CN(Cc2ccccc2)C(=O)N1 (stereo unspecified)	i
CC1(C)C[C@H](NC2CCC2)[C@@]2(CCC(=O)NCc3cccnc3)CC[C@](C)(O)C[C@@H]12	i
